Sa ugtP lethal = growth inhibition of S. aureus ugtP deletion strain; 330,000 compounds, 0.54% hits; S. aureus RN4220 ugtP deletion, OD600 growth, 16 h; some inactives read as strong as hits; growth inhibition, % (test concentration not listed);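 active = z-score under -3 and OD600 up to 0.15 on both plates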;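 also: plate controls were untreated wells for no effect and antibiotic for full effect; wells of about 80 µL received 100 nL stock; the first replicate is given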
Bead autofluor = compound fluorescence in toxin protease inhibitor counterscreen; compound autofluorescence counterscreen, microsphere flow cytometry; stronger effect = higher value; fluorescence intensity (test concentration not listed); 360,000 compounds, 3.1% hits; AID 624483;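 active = at least 3 SD above the mean of all compounds, about 16000 in these data; inconclusive = too few beads counted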;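 also: 100 nL of 1 mM stock went into each well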
Mtb hypoxia rep = inhibitors of hypoxia-regulated fluorescent reporter in Mycobacterium tuberculosis; M. tuberculosis hypoxia-regulated fluorescent reporter, fluorescence; fluorescence inhibition, % (no concentration beside the values); 300,000 compounds, 0.1% hits; AID 1159583;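 active = 35 to 45% if threefold the growth effect, above 45% if 1.5-fold the growth effect; inactive = the rest, general growth blockers included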;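 also: wells of about 50 µL received 100 nL stock; 0% = vehicle wells and 100% = reference inhibitor wells; whole bacteria with a GFP reporter of the hypoxia response; strong numbers were not always called active; many hits fall short of the cut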
Sa RN4220 lethal = kills Staphylococcus aureus RN4220 | inhibition, % (test concentration not listed) | S. aureus RN4220 growth, OD600, 16 h | 330,000 compounds, 0.33% hits;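 active = z-score of -3 or lower and OD600 up to 0.18 on both plates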;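 also: plate controls were untreated cells for no effect and reference antibiotic for full effect; stock transfer was 100 nL into about 80 µL; one replicate is shown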
BJeLR viability = BJeLR cell viability loss. 300,000 compounds, 0.17% hits. BJeLR (HRASV12) viability, CellTiter-Glo ATP luminescence, 48 h; reference of the scale not given here. inhibition, % (no concentration beside the values);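 active = replicate mean above 50%; inconclusive = above 50% but judged a plate artefact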;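 also: 50 nL library stock added to about 25 µL; numbers are from one replicate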
PrP UTR inh = suppresses PrP 5' UTR mRNA reporter expression | cell-based PrP 5' UTR mRNA reporter, plate reader | inhibition, % (concentration not given with the values) | 340,000 compounds, 0.35% hits | AID 488862;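 active = every replicate at 50% or more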;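 also: 0 = median of the neutral control wells; tested in H4 reporter cells; numbers are from one replicate; inactives centre near -14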
Mtb hypoxia rep growth = further read-out of Mtb hypoxia rep, marked with its call; growth inhibition, %; measured here: M. tuberculosis growth (absorbance);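 0% = vehicle and 100% = reference antibiotic; read after six days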
Numbers without * were called inactive; u = inconclusive; x = no result given.

SMILES	Sa ugtP lethal	Bead autofluor	Mtb hypoxia rep	Mtb hypoxia rep growth	Sa RN4220 lethal	BJeLR viability	PrP UTR inh
Cc1cccc([C@@H]2[C@@H]3C(=O)N(Cc4ccccc4)C(=O)[C@@H]3[C@]3(Cc4ccccc4)C(=O)N(c4ccc(C(F)(F)F)cc4)C(=O)N23)c1	x	3436	x	x	x	-5	-17
O=C(CCCc1ccccc1)NCc1ccc(Cl)cc1	9	x	12	8	-4.2	-5	-9
O=C1c2ccccc2C(=O)N1c1cc([N+](=O)[O-])ccn1	12	4060	4	8	-2.3	1	-12
FC(F)(F)c1ccccc1NC(=S)Nc1cccc(Cl)c1	-16	2561	-6	2	-5.6	-2	-8
CC(=O)N[C@@H](C)C(=O)OC(C)C(=O)Nc1cccc([N+](=O)[O-])c1 (stereo partly specified)	0	3259	-1	-4	3.9	x	-22
Clc1ccc(OCCCn2ccnc2)c(Br)c1	-3	2376	x	x	-1.0	-3	-28
O=C(COC(=O)c1ccccc1F)NC(=O)NC1CCCC1	-6	4061	-6	6	-1.8	x	-12
CCC(C)N1CCN(S(=O)(=O)Cc2ccccc2)CC1 (stereo unspecified)	-7	2928	-11	0	0.5	-1	-4
O=[N+]([O-])c1ccc(CNC2CCCc3ccccc32)cc1 (stereo unspecified)	6	4139	8	-9	1.5	-1	-12
S=C1NCCOCCNC(=S)NCCOCCOCCN1	2	2208	-10	3	2.4	-4	-12
COc1cc2c(cc1OC)CN(C(=O)COc1ccc(C)c(C)c1)CC2	7	3458	13	11	12	-2	-6
CCN(CC)S(=O)(=O)c1ccc(NC(=O)c2nc3nc(C)cc(C)n3n2)cc1	14	x	12	3	3.6	-8	x
CCN1CCN(c2ccc(S(=O)(=O)N3CCOCC3)cc2NC(=O)c2cccc([N+](=O)[O-])c2)CC1	-1	4144	-5	5	2.1	x	-67
CCOc1cc(/C=N/NC(=O)c2nnn(-c3nonc3N)c2C)ccc1OCc1ccc(F)cc1	x	5271	x	x	x	8	0
CCOC(=O)C1CCN(c2c(Nc3cc(C)cc(C)c3)c(=O)c2=O)CC1	4	4739	-1	-1	4.2	3	-35
CCOC(=O)c1c(-c2ccccc2)nnn1-c1nc(OC)nc(N2CCOCC2)n1	1	2910	5	10	2.7	-6	-24
Cc1cc(SCC(=O)OC/C(O)=C(\C#N)c2nc3ccccc3[nH]2)c(C)cc1Br	x	4134	x	x	x	11	-39
COc1ccc(C(=O)OCc2cc3cccc(C)c3[nH]c2=O)cc1	1	3264	-2	8	13	7	11
COCCNC(=O)CCCn1c(=O)c2ccccc2n(Cc2ccccc2C#N)c1=O	7	3470	-1	2	1.8	-15	-16
CC(C(=O)Nc1ccccc1-c1ccccc1)N1CCN(C(=O)c2ccccc2)CC1 (stereo unspecified)	1	4837	6	-4	0.4	3	-16
COc1cc(S(=O)(=O)N2CCOCC2)ccc1NC(=O)COC(=O)C12CC3CC(CC(C3)C1)C2	-3	2871	3	5	-9.9	-9	6
Cc1nc2sc(C(c3ccc(F)cc3)N3CCOCC3)c(O)n2n1 (stereo unspecified)	-7	4788	6	13	-5.4	0	-11
COCCOC(=O)C1=C(C)NC(=O)NC1c1cccc2ccccc12 (stereo unspecified)	4	3928	8	8	3.2	-13	-3
O=C(NCC(c1cccs1)N1CCOCC1)c1ccc(Br)o1 (stereo unspecified)	3	2613	x	x	3.1	-3	-3
COc1ccc(/C=C/C(=O)O)cc1S(=O)(=O)NC1CCS(=O)(=O)C1 (stereo unspecified)	2	4285	5	4	0.7	11	-29
CC(C)(CNC(=O)CO/N=C1/C=C2CCC3C(C(O)C[C@@]4(C)C3CC[C@]4(O)C(=O)CO)[C@@]2(C)CC1)C(O)C(=O)O (stereo partly specified)	x	3532	x	x	x	10	-24
O=C1CCC2(CCCCC2)N1	2	3943	-2	16	3.2	x	-11
CC(C)NC(=O)c1ccccc1NC(=O)CS(=O)(=O)Cc1ccccc1	-3	9941	1	5	3.8	2	x
COc1cccc(C(=O)NCC(=O)NNc2ncnc(N)c2[N+](=O)[O-])c1	0	4101	11	0	2.8	0	1
CCOC(=O)c1cnc(SC)nc1Sc1ccccc1Cl	27	2698	x	x	1.2	11	-11
Cc1nc2sc(C(c3cccs3)N3CCN(Cc4ccccc4)CC3)c(O)n2n1 (stereo unspecified)	9	4736	1	2	1.4	-4	-13
Cc1ccc2cc(CN(c3ccccc3)S(=O)(=O)c3ccccc3)c(=O)[nH]c2c1	4	4175	-3	3	5.2	-4	-17
CCCCOc1ccc(N=Cc2ccc[nH]2)cc1	14	4365	8	-2	3.4	-2	-22
O=c1[nH]c(CSc2nnc(-c3ccccc3)n2-c2ccccc2)nc2ccccc12	3	2014	8	-4	6.6	3	-8
COc1ccc(Cc2n[nH]c(=S)o2)cc1	21	3331	13	6	3.4	6	-21
Cc1ccc(C)c(NC(=O)C(Sc2nnc(-c3cccs3)o2)c2ccccc2)c1 (stereo unspecified)	-8	2034	-5	4	2.7	x	-10
Cc1ccccc1-c1cc(C(=O)NCC2CC2)n(CC2CC(c3cccnc3)=NO2)n1 (stereo unspecified)	2	2982	-10	4	0.2	x	0
Cc1c(C2Nc3ccccc3C(=O)N2O)cnn1C (stereo unspecified)	2	3545	3	3	0.0	-15	-11
CCP(=S)(CC)c1ccc(N(C)C)cc1	2	3445	0	6	-0.4	-3	-19
N/C(=N\O)C1COc2ccccc2O1 (stereo unspecified)	x	16073	x	x	x	1	-16

Continued; the last 5 above are carried over.
SMILES	Sa ugtP lethal	Bead autofluor	Mtb hypoxia rep	Mtb hypoxia rep growth	Sa RN4220 lethal	BJeLR viability	PrP UTR inh
Cc1ccc(C)c(NC(=O)C(Sc2nnc(-c3cccs3)o2)c2ccccc2)c1 (stereo unspecified)	-8	2034	-5	4	2.7	x	-10
Cc1ccccc1-c1cc(C(=O)NCC2CC2)n(CC2CC(c3cccnc3)=NO2)n1 (stereo unspecified)	2	2982	-10	4	0.2	x	0
Cc1c(C2Nc3ccccc3C(=O)N2O)cnn1C (stereo unspecified)	2	3545	3	3	0.0	-15	-11
CCP(=S)(CC)c1ccc(N(C)C)cc1	2	3445	0	6	-0.4	-3	-19
N/C(=N\O)C1COc2ccccc2O1 (stereo unspecified)	x	16073	x	x	x	1	-16
CCCCC(=O)NC(c1ccco1)c1cc(Cl)c2cccnc2c1O (stereo unspecified)	5	4356	12	5	23	4	-7
Nc1ncnc2nc(SCCC(=O)O)[nH]c12	7	4469	13	-1	3.5	5	-10
O=C(O)CCNC(=O)c1ccc(NC(=O)C(c2ccccc2)c2ccccc2)cc1	-1	3475	4	-3	-1.4	-2	-14
Cc1ccc(C)c(Nc2c(F)c(F)c(F)c(F)c2C(=O)O)c1	6	2203	12	6	13	13	-25
COCc1[nH][nH]c(=O)c1C=Nc1ccccc1	9	4716	8	6	6.7	9	3
O=C(CN1C(=O)S/C(=C\c2cc(Cl)c(O)c(Cl)c2)C1=O)Nc1ccccc1	15	3728	10	2	3.3	-16	-10
COc1ccccc1NC(=O)c1c[nH]c2ccccc12	-18	3839	-4	-5	0.6	-6	-25
O=C(NC1=NCCS1)c1csc2ccccc12	-5	14531	7	4	5.5	-4	-136
COC(=O)c1cccc(NC(=O)c2ccc3c(c2)C(=O)N(Cc2cccnc2)C3=O)c1C	-3	5783	2	7	1.5	5	-4
Cc1ccc(CN2C3c4ccccc4CC3OCCS2(=O)=O)cc1 (stereo unspecified)	20	x	16	4	9.5	x	x
CC(=O)Oc1oc(-c2ccccc2)nc1/C=N/c1ccccn1	x	5386	x	x	x	-4	-37
Fc1cccc(Cl)c1/C=N/Nc1ccccn1	x	4459	x	x	x	2	-54
CCCc1c(C(=O)N/N=C/c2ccc(C)s2)nnn1-c1nonc1N	x	6177	x	x	x	0	-22
CCOC(=O)C1=NN(c2ccc(OC)cc2)C2C(=O)N(c3ccccc3OC)C(=O)C12 (stereo unspecified)	-1	3657	13	2	1.4	-17	-38
C=CCc1ccc(OCCCCNC(C)CC)c(OC)c1 (stereo unspecified)	5	1941	10	11	5.0	-18	-2
COc1ccc(C2/C(=C(/O)c3ccc(C)cc3)C(=O)C(=O)N2C)cc1 (stereo unspecified)	x	2579	x	x	x	0	-13
O=C1CC(N2CCN(S(=O)(=O)c3ccccc3F)CC2)C(=O)N1c1ccccc1Cl (stereo unspecified)	0	u	-8	3	2.6	x	-4
CC(C)Oc1ccc(/C=C(/NC(=O)c2ccccc2)C(=O)NC(Cc2ccccc2)C(=O)O)cc1 (stereo unspecified)	11	2988	14	-2	1.3	-13	-28
COc1cccc(NC(=O)C(c2ccccc2)N2CCNC(=O)C2)c1 (stereo unspecified)	0	4389	-1	6	4.0	-1	-41
COC(=O)c1cccc(NC(=O)C2COc3ccccc3O2)c1C (stereo unspecified)	4	3346	3	6	1.7	-2	-30
COc1ccc(NC(=O)C2CCN(S(=O)(=O)c3ccc4c(c3)CC(C)N4C(C)=O)CC2)c(OC)c1 (stereo unspecified)	3	5701	15	4	-2.0	7	-9
Cc1cccc(C)c1NC(=O)CC1SC2=NCCN2C1=O (stereo unspecified)	7	3530	x	x	-0.6	-12	-21
COc1ccc(CN2CCN(Cc3c[nH]c4ccccc34)CC2)cc1	8	4239	13	1	5.6	-7	7
Cc1ccc(-c2csc(/C(C#N)=C(\O)CCl)n2)cc1	52	4665	-3	6	58	-7	-57
COC(=O)[C@@H]1OC(=O)[C@H]2O[C@@]23[C@@]1(C)CC[C@@H]1[C@@]2(C)C=CC(=O)OC(C)(C)[C@@H]2CC(=O)[C@]13C	-4	4197	2	-6	-11	x	-9
O=C(CSc1ccc2nnc(-c3cccnc3)n2n1)N1CCOCC1	5	5600	-9	-5	3.4	-3	-21
CC1(C(=O)NCCN2CCOCC2)C=CC2(CCCCC2)N1C(=O)c1ccccc1 (stereo unspecified)	3	4242	10	2	6.1	2	-32
COc1cccc(NC(=O)C23CCC(C)(C(=O)O2)C3(C)C)c1 (stereo unspecified)	-4	x	13	5	-0.9	1	2
O=[N+]([O-])c1ccc(N2CCOCC2)cc1N1CCCCC1	16	4284	9	3	6.7	-4	-2
CCCCNC(=O)CN(C1CCCCC1)S(C)(=O)=O	4	8711	-3	-19	-0.3	x	-29
COc1ccc(S(=O)(=O)N2CCC(C(=O)NCC3CCCCC3)CC2)cc1	12	5447	9	9	0.6	-8	-36
O=C(COc1ccccc1Cl)Nn1cnnc1	0	3296	12	2	-6.6	5	-17
Cc1cccc(C2N=C(N)Nc3nc4ccccc4n32)c1 (stereo unspecified)	-7	4761	-7	-6	2.2	-4	-11
Cc1cc(NC(=O)c2cc(C3CC3)on2)n(-c2ccccc2)n1	-1	6275	2	3	0.1	-4	-10
O=C(CSc1nnc(NC(=O)Cc2ccccc2)s1)NCC1CCCO1 (stereo unspecified)	-63	4322	10	8	5.0	-3	-27
O=S(=O)(O)c1cc2oc(-c3ccccc3)nc2c2ccccc12	-8	4254	8	5	7.0	-1	-22
CCOP(=O)(OCC)C(NC(=O)c1cccc([N+](=O)[O-])c1)C(Cl)(Cl)Cl (stereo unspecified)	7	4673	15	7	4.9	16	3
COc1cccc(C=NNC(=O)c2c(C)nc3ccc(Cl)cn23)c1OC	7	x	-13	4	1.1	x	x
COc1cccc(CNC(=O)Cn2nc(C)c3c(C)n(-c4ccc(C)cc4)nc3c2=O)c1OC	-1	4844	5	2	-0.1	8	7
CN(C(=O)c1cccs1)c1ccccc1C(=O)O	5	x	12	19	2.4	4	-38
O=C(Nc1ccc(-c2nc3ccccc3o2)cc1)c1cc(-n2cnnc2)ccc1Cl	2	23846*	3	1	11	11	-36
O=c1cccccc1NN=C1CCCCC1	-6	3327	1	2	-2.7	-6	-21
Cc1cc(C)nc(SCC(=O)NNS(=O)(=O)c2ccc(C#N)cc2)n1	1	u	9	-6	4.3	x	-20
Cn1c(=O)c2c(-c3ccc(C(C)(C)C)cc3)n(N3CCOCC3)cc2n(C)c1=O	-12	3508	-3	6	1.6	-2	3

Screening results: PubChem, several laboratories
